Source: PubChem (National Center for Advancing Translational Sciences (NCATS))
LASV entry inh: blocks Lassa virus binding to or entry into cells | 1.2% of 300,000 active | Potency, µM (highest dose often 37.9 µM), inactives show at the top dose activity change, negative = inhibition, usual class: inhibitors | AID 540256 | Lassa virus pseudotype entry inhibition, cell reporter; control for the full effect not named in the record; active means well fitted inhibition curve with a large enough effect; inconclusive means small, poorly fitted or top-dose-only effect, or effect the other way; inactive means flat fitted curve, though single readings scatter; tested in HEK293 cells; further: on the % scale 0 is the no-effect control and ±100 the full control effect; nearly all actives have a fitted effect of over 50% in size; luciferase read-out
SARS PLP yeast: inhibitors of SARS-CoV papain-like protease in yeast; 0.19% of 330,000 active; S. cerevisiae expressing SARS-CoV PLpro, growth rescue; control for the full effect not named in the record; AID 485353; Potency, µM (top dose mostly 32.9 µM), for the others: top-dose activity, positive = growth rescue; further: 0% is about no effect; nearly all actives have a fitted effect of over 55% in size; growth read by luminescence after 48 h
RE007 growth inh: less growth of the S. pombe RE007 Vpr strain | S. pombe RE007 Vpr strain, BacTiter-Glo ATP luminescence, 24 h; control for the full effect not named in the record | Potency, µM (top dose mostly 92.2 µM), without a hit: at the top dose activity change, negative = less growth | 0.21% of 360,000 active; active = well fitted falling curve with a large enough effect; inconclusive = small, poorly fitted or top-dose-only effect; inactive = no such curve, though single readings can be large or run the other way;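 further: on the % scale 0 is the no-effect control and ±100 the full control effect; nearly all actives have a fitted effect of over 50% in size; the assay follows cell death caused by Vpr and the record does not say whether a fall means rescue or toxicity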
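Fission yeast strain RE007, carrying one chromosomally integrated HIV-1 vpr copy, was seeded at OD 0.01 in PMG+AL medium with 23 nL pinned compound. After 24 h at 30 °C and 99% humidity, viability was read by BacTiter-Glo luminescence.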
Cruzain noTriton: blocks cruzain activity in detergent-free assay; P25779; purified cruzain, Z-FR-AMC fluorescence, no detergent; Potency, µM, without a hit: max response, negative = inhibition, most hits filed as inhibitors; 2.3% of 200,000 active; AID 1476; active means well fitted curve in the direction sought with a large enough effect; inconclusive means small, poorly fitted or top-dose-only effect, or another doubt; inactive means no such curve, though single readings can be large; an effect the other way counts as inactive or inconclusive;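 further: plate controls were enzyme without inhibitor for no effect and buffer without enzyme for full effect; nearly all actives have a fitted effect of over 40% in size; top concentration of the series not given in the record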
Target sequence (P25779 123-467 limits assumed): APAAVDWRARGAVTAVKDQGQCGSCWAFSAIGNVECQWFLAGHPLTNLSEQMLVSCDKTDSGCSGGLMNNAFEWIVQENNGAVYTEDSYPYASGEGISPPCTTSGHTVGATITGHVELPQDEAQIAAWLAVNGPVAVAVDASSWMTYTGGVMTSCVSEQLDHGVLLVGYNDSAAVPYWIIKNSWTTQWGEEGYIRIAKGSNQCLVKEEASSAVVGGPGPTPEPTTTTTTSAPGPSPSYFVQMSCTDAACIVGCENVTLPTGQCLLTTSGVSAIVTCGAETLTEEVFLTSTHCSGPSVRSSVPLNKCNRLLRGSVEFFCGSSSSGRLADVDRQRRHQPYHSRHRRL
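Detergent-free condition (0.00005% Triton X-100) in acetate buffer pH 5.5 with DTT. 1.5 nM enzyme and compound were pre-mixed 15 min, then 2 uM Z-FR-AMC substrate added; reaction progress from fluorescence change between first and third reads (60 s).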
2A StopGo: FMDV 2A StopGo reporter, luciferase signal; human cells with a luciferase reporter of 2A StopGo recoding; control for the full effect not named in the record; Potency, µM (doses to about 57.9 µM), for the others: top-dose signal change, negative = less light; 1.2% of 410,000 active; AID 1159524; active = well fitted falling curve with a large enough effect; inconclusive = small, poorly fitted or top-dose-only effect; inactive = no such curve, though single readings can be large or run the other way; tested in HEK293T cells; further: on the % scale 0 is the no-effect control and ±100 the full control effect; nearly all actives have a fitted effect of over 45% in size; luciferase light after 4 h
Cruzain Triton: cruzain (T. cruzi) inhibition with detergent. purified cruzain, Z-FR-AMC fluorescence, 0.01% Triton. P25779. 0.43% of 200,000 active. Potency, µM, for inactives: max response, negative = inhibition, hits mostly inhibitors. AID 1478; active means well fitted curve in the direction sought with a large enough effect; inconclusive means small, poorly fitted or top-dose-only effect, or another doubt; inactive means no such curve, though single readings can be large; an effect the other way counts as inactive or inconclusive;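 further: plate controls were neutral wells for no effect and buffer without enzyme for full effect; nearly all actives have a fitted effect of over 40% in size; top concentration of the series not given in the record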
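Detergent-containing run (0.01% Triton X-100) in acetate buffer pH 5.5 with 5 mM DTT: enzyme at 1.5 nM final, 15 min compound preincubation at room temperature, then 2 uM Z-FR-AMC substrate. Activity taken as 60 s fluorescence increase at 360/450 nm.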
NS1 function inh: blocks influenza NS1 protein function; S. cerevisiae slowed by influenza A NS1, growth recovery by OD600; 0.4% of 270,000 active; AID 2326; Potency, µM (series often up to 46.1 µM), without a hit: at the highest dose activity, positive = more growth; further: actives are rising curves; nearly all actives have a fitted effect of over 50% in size
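Growth recovery, yeast-based: influenza A NS1 expressed in S. cerevisiae causes slow growth, and suppressors are detected by OD600. The parent strain without NS1 is used as positive control.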
Marburg entry inh: inhibitors of Marburg virus binding or cell entry | Marburg virus pseudotyped entry inhibition, cell reporter; control for the full effect not named in the record; about a third of the inactives were read at about 46 µM | Potency, µM (top dose mostly 37.8 µM), without a hit: top-dose activity change, negative = inhibition, hits mostly inhibitors | 1.8% of 300,000 active; active = well fitted inhibition curve with a large enough effect; inconclusive = small, poorly fitted or top-dose-only effect, or effect the other way; inactive = flat fitted curve, though single readings scatter; tested in HEK293 cells; about a fifth of its hits are not listed in these tables; further: on the % scale 0 is the no-effect control and ±100 the full control effect; luciferase read-out
Active calls of the source: *; ? = inconclusive; . = not tested or not shown; & = joins results of further samples; [ ] = another dose, or the depositor's remark. Unless noted, the call rests on the fitted dose curve; in most records, active means well fitted rising curve with a large enough effect; inconclusive means small, poorly fitted or top-dose-only effect; inactive means no such curve, though single readings can be large or run the other way. Potency means the concentration at half of the fitted maximal effect.

SMILES | LASV entry inh | SARS PLP yeast | RE007 growth inh | Cruzain noTriton | 2A StopGo | Cruzain Triton | NS1 function inh | Marburg entry inh
COc1ccc(Br)cc1C(=O)N/N=C/c1ccc([N+](=O)[O-])cc1 | -23.9% | -8.4% | -3.8% | . | -18.3% | . | 0.0% | 0.3%[46.1 µM]
CC1(C)CC(NCc2cccc([N+](=O)[O-])c2)CC(C)(C)N1 | 14.6% | 1.4% | -16.4% | . | 34.8%[activator] | . | -0.9% | -2.9%
CCOc1ccc(NS(=O)(=O)c2ccc(C(=O)NC3CCN(Cc4ccccc4)CC3)cc2)cc1 | -15.6% | 9.0% | -13.3% | . | -25.8% | . | . | ?
CCCSc1cc(NCCOC(C)=O)c([N+](=O)[O-])c2nonc12 | 2.6% | 1.3% | -6.2% | -3.1% | 0.0% | -13.1% | -5.3% | ?
COc1ccc(NCc2cc3cc4c(cc3n(CC(=O)Nc3cc(C)ccc3C)c2=O)OCCO4)cc1 | 5.1%[46.1 µM] | . | . | -17.4% | -21.1% | -2.7% | . | .
S=c1[nH]nc(C2CCCCC2)n1Cc1ccccc1 | ? | 0.1% | 12.0% | . | 7.9% | . | -3.2% | -22.6%[46.1 µM]
COc1c(C)oc2cc(O)ccc2c1=O | 9.2% | -6.6% | 6.9% | -5.1% | -13.1% | -3.8% | 15.8% | -25.1%
Cn1nc(CC(=O)NC2CCCCC2)c2ccccc2c1=O | 0.6% | 8.7% | 9.6% | -6.8% | -28.5% | -1.4% | 13.9% | -24.8%
CCOC(=O)c1cc(-c2ccc(C)cc2)n(CC(=O)NC2CCCCCC2)c1C | . | . | . | 7.1% | 25.2% | 0.2% | . | ?
O=C(NC1CCCN(Cc2ccc(Cl)cc2)C1)C1CCC1 (stereo not drawn) | 12.9%[46.1 µM] | 2.8% | 6.1% | . | -2.4% | . | -15.9% | 5.0%[46.1 µM]
COc1ccc(/C=N/NS(=O)(=O)c2ccc(F)cc2)cc1CN1CCSCC1 | ? | -1.9% | -17.1% | . | -11.3% | . | -0.1% | -18.4%
COc1ccc(C(C)=O)cc1CC(=O)N(Cc1ccccc1)c1ccccc1 | -23.2% | -2.0% | -0.5% | . | ? | . | -10.6% | ?
Cc1nc2sc(C(c3cccc(F)c3)N3CC(C)OC(C)C3)c(O)n2n1 (stereo not drawn) | -6.5% | 1.0% | 0.6% | -0.6% | 44.7%[activator] | 3.0% | 5.4% | -6.9%
Cc1c(CCC(=O)NCCCn2ccnc2)c(=O)oc2c(C)c3occ(C(C)(C)C)c3cc12 | ? | -1.0% | 6.1% | . | -11.8% | . | -14.2% | ?
NC(=O)CC(NC(=O)Cc1cccc2ccccc12)c1ccc(NCc2ccc(F)cc2)c([N+](=O)[O-])c1 (stereo not drawn) | . | 1.3% | 3.0% | . | -20.5% | . | -0.1% | .
O=C1COc2ccc(C(=O)COc3ccc([N+](=O)[O-])cc3)cc2N1 | -26.2%[46.1 µM] | 0.3% | -13.4% | . | 8.0% | . | 3.9% | -21.6%[46.1 µM]
O=C(C1CC1)N1CCc2cc(S(=O)(=O)NCC3COc4ccccc4O3)ccc21 (stereo not drawn) | ? | -2.8% | 16.0% | -24.4% | -4.8% | -0.8% | -17.5% | ?
O=C(CCn1c(=S)[nH]c2ccccc2c1=O)Nc1ccc(F)cc1 | ? | 0.9% | -3.1% | . | -1.1% | . | 3.0% | ?
Cc1cc(C)n2nc(CNS(=O)(=O)c3ccc(F)cc3)nc2n1 | 8.2%[46.1 µM] | 3.3% | 0.3% | 0.9% | 0.0%&-21.0% | 0.2% | 1.9% | ?
O=C1CC(N2CCN(c3cccc(C(F)(F)F)c3)CC2)C(=O)N1c1ccccc1 (stereo not drawn) | -7.4% | -10.3% | ? | ? | ? | -3.3% | -2.1% | -0.2%
CC(C)c1ccc(NC2CCCN(C(=O)CSc3nncn3C)C2)cc1 (stereo not drawn) | . | -2.7% | -10.7% | . | -14.4% | . | -8.3% | .
CCn1nnc2cc(C(=O)N(CCOC)CC(=O)Nc3cccc(C)c3C)ccc21 | 7.8% | -5.2% | 14.0% | . | -1.5% | . | . | ?
COc1cccc(CNC(=O)c2sc3nc[nH]c(=O)c3c2C)c1 | -2.1%[46.1 µM] | . | . | -1.7% | -18.6% | -3.0% | . | .
COc1ccc(NC(=O)CCNS(=O)(=O)c2ccc3c(c2)CCCC(=O)N3)cc1Cl | -14.2%[46.1 µM] | . | . | -2.5% | -9.7% | 1.6% | . | .
CCOC(=O)c1c(NC(=S)Nc2ccc(F)cc2)sc2c1CCC2 | -6.6% | 5.7% | 13.9% | -16.4% | -18.0% | -3.3% | -2.9% | -13.7%
Cc1sc(NC(=O)CN2CCN(c3ccccn3)CC2)c(C#N)c1C | 5.3% | -29.4% | -0.1% | 9.8% | 0.9% | -3.9% | -10.3% | -26.1%
NC(=O)/C(=C\c1cccnc1)NC(=O)c1ccccc1 | 14.6%[46.1 µM] | 1.2% | 9.7% | . | -11.2% | . | . | -10.1%[46.1 µM]
Cc1cccc(-c2nc3scc(CCNS(=O)(=O)c4ccc(F)cc4C)n3n2)c1 | 1.7%[46.1 µM] | . | . | 25.9% | 17.7% | -9.1% | . | .
O=C(COc1cccnc1[N+](=O)[O-])NCc1cccs1 | -7.0% | -0.2% | -10.8% | . | 7.0% | . | 0.2% | -2.7%[46.1 µM]
COc1ccccc1NC(=O)c1ccc2[nH]c(C)c(C)c2c1 | . | -4.9% | -22.6% | . | 54.4%[activator] | . | -3.3% | .
O=C(NN=Cc1ccccc1)NN=Cc1ccccc1 | -8.6%[46.1 µM] | . | 3.0% | . | 30.9%[activator] | . | . | ?
CCN1CCN(c2ccc([N+](=O)[O-])cc2C(=O)c2ccc(Cl)cc2)CC1 | ? | 0.9% | -19.5% | -2.5% | -25.1% | -0.5% | -0.1% | ?
COc1ccc2c3c1O[C@H]1C[C@@H](O)C=C[C@@]31CCN(C)C2 | . | 0.7% | 6.3%[18.4 µM] | -0.4% | -13.9% | 0.0% | . | .
CCC(Sc1nnc(-c2ccco2)n1C)C(=O)Nc1nnc(C)s1 (stereo not drawn) | 12.4%[46.1 µM] | -3.4% | 0.8% | . | 24.2% | . | 3.2% | ?
Cc1ccc(NC(=O)CN2C(=O)CC(c3ccc(C)c(C)c3)=Nc3ccccc32)cc1 | -29.4%[46.1 µM] | . | . | -12.0% | 11.6% | -4.5% | . | .
COc1cc(OC)c(Nc2ncnc3onc(-c4cccc(Cl)c4)c23)cc1Cl | 16.1%[46.1 µM] | . | . | -6.5% | -5.7% | -1.1% | . | 2.7%[46.1 µM]
CC(OC(=O)/C=C/c1ccc(Br)cc1)C(=O)N1CCOCC1 (stereo not drawn) | -5.7% | -1.7% | -5.8% | . | -9.3% | . | . | 10.8%
O=C(CC1C(=O)NCCN1Cc1c(F)cccc1Cl)NC1CCCC1 (stereo not drawn) | 1.0% | 0.9% | 1.0% | . | 3.6% | . | -2.0% | 0.0%[46.1 µM]
Cc1cc2c(NCCc3ccccc3)ncnc2s1 | ? | -8.2% | -15.6% | . | -19.7% | . | -70.5% | 7.08µM*
O=C(/C=C/c1ccc(Cl)c([N+](=O)[O-])c1)c1ccc(O)cc1 | ? | 0.8% | -6.2% | . | ? | . | -3.8% | -14.7%[46.1 µM]
Cc1ccccc1N1CCN(C2CCCN(C(=O)c3ccnn3C)C2)CC1 (stereo not drawn) | ? | -2.7% | -7.1% | . | -15.6% | . | 11.8% | -12.2%
COCCN(C(=O)COC(=O)CCSc1ccc(F)cc1)c1c(N)n(Cc2ccccc2)c(=O)[nH]c1=O | -2.7% | 5.1% | -1.2% | . | -13.6% | . | . | 1.6%
Cc1cc(C(=O)OCC(=O)N2CC(C)CC(C)C2)c(C)o1 (stereo not drawn) | 13.4% | 1.8% | -21.1% | 13.5% | 0.0% | 2.2% | -6.0% | 7.1%
COc1cc(-c2cn(S(=O)(=O)c3cccc4nsnc34)nc2N)cc(OC)c1OC | -0.5% | 1.0% | -12.2% | 11.7% | 16.7% | -6.9% | 21.0% | ?
COc1cccc(NC(=O)c2ccncc2)c1 | -9.0% | -2.3% | -10.8% | -1.4% | 19.0% | 0.7% | -5.9% | 1.6%[46.1 µM]
CC(=O)N1c2ccc(S(=O)(=O)N3CCCC(C(=O)Nc4ccc(C)cc4C)C3)cc2CC1C (stereo not drawn) | . | 1.0% | -0.6% | . | ? | . | 16.7% | .
COc1cccc2sc(N(Cc3cccnc3)C(=O)COc3ccccc3)nc12 | -8.4%[46.1 µM] | . | . | ? | -1.7% | -6.7% | . | .
Cc1ccccc1-c1noc(-c2ccc(NC3CCCC3)c([N+](=O)[O-])c2)n1 | 13.0%[46.1 µM] | . | . | 5.1% | 0.0% | -12.5% | . | 10.7%[46.1 µM]
Cc1c(N2C(=O)/C(=C/c3ccccc3)SC2=S)c(=O)n(-c2ccccc2)n1C | -17.7% | -7.5% | 21.4% | ? | -29.5% | -0.5% | 4.0% | -1.0%
